# MLL AF4-AF9 inh: inhibitors of AF4 peptide binding to AF9, primary screen, biochemical, AlphaScreen, biotin-AF4 peptide, FLAG-AF9, single point. Protein AF-9 (Homo sapiens), P42568. inhibition, % at 10 µM. AID 651704, 2012. actives 0.47% (n = 350,000);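 active = every replicate reaching a set inhibition limit, whatever the replicate mean, cut at about 25% in these data; inconclusive = mean inhibition reaches that limit but some replicates miss it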;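 also: 0% = plate neutral control median and 100% = total signal loss; the record names both 10 and 1 µM as test concentration; the first replicate is given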
# Target sequence (P42568 whole entry, looked up): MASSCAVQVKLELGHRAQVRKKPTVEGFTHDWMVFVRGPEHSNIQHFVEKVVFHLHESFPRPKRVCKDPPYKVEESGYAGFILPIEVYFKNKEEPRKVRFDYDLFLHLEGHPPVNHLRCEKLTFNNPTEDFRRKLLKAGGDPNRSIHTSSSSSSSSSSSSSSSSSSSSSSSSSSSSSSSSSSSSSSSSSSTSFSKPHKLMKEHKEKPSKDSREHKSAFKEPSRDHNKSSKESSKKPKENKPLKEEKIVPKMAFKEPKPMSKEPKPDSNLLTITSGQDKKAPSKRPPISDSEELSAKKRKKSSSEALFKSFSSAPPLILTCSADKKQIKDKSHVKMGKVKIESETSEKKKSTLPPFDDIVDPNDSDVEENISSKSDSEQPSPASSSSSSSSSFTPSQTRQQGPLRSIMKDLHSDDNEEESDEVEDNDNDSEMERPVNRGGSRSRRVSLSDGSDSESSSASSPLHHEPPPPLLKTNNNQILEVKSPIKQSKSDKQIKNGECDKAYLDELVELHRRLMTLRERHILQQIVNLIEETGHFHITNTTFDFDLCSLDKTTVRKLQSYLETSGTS
# HNF4A DNA FP: change in binding of human HNF4A to DNA, primary screen, biochemical, fluorescence polarization, FITC-DNA. Hepatocyte nuclear factor 4-alpha (Homo sapiens), P41235. 1 h. activity change, % at 10 µM. actives 0.3% (n = 360,000); in the data active = activity change above about 30%, passing the limit was not always enough;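 also: controls were the assay level and a saturating level of protein; the project sought stronger binding though the title names inhibitors; some compounds called inactive have numbers as strong as hits; positive values seem to mean higher polarization but the record does not say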
# Target sequence (P41235 whole entry, looked up): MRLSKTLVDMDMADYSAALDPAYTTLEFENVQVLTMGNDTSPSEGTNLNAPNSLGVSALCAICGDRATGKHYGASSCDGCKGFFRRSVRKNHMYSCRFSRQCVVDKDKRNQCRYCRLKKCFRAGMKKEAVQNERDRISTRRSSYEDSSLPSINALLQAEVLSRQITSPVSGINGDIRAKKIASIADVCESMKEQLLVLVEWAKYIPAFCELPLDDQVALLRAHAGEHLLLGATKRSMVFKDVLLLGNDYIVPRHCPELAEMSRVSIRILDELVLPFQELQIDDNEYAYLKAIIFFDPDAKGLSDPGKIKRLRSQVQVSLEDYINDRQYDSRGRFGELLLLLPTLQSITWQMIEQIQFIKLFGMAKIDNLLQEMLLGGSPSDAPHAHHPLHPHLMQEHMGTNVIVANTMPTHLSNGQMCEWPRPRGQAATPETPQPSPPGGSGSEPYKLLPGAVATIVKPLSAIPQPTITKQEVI
# RanGTP-Imp inh: inhibitors of RanGTP-importin-beta interaction, primary screen, biochemical, FRET, CFP-Ran, YFP-importin-beta, homogeneous; inhibition, % (concentration not given with the values); actives 1.1% (n = 300,000); cell-free CFP-Ran/YFP-importin-beta FRET ratio;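 active = most replicates above 15%; inconclusive = exactly half above 15%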;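 also: 0% = DMSO wells and 100% = Ran loaded with GDP instead of GTP; wells of about 40 µL received 100 nL stock; the first replicate is given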
# FGF22 binding: binders of human FGF22 protein, primary screen, FGF22 synaptogenesis inhibitor project, biophysical, thermal shift, single point; recombinant FGF22 thermal shift, SYPRO orange fluorescence; percent of sucrose octasulfate shift, DMSO zero; calls only at 9.99 µM; actives 1.5% (n = 340,000);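 active = melting point raised past a set limit in the mean and every replicate; inconclusive = no clear call; three in four hits are not shown here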
# Vif TR-FRET: inhibitors of Vif binding to APOBEC3G peptide, primary screen, biochemical, TR-FRET, GST-Vif 1-94, biotin-A3G peptide, dose response retest (AID 1117319); Virion infectivity factor (Human immunodeficiency virus type 1 group M subtype B (isolate …; TR-FRET GST-Vif / biotin-A3G peptide binding; higher % means a stronger effect; test concentration not given here; strong numbers were not always called active; inhibition, %; hits with a dose series show IC50 in µM; actives 0.57% (n = 260,000);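 active = above the screen mean plus three standard deviations and confirmed in dose response; inconclusive = results disagree or hit not tested in dose response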;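 also: Vif residues 1-94 fused to GST binding biotinylated APOBEC3G peptide 110-148; 0% = full assay without inhibitor and 100% = GST in place of GST-Vif; retest series ran down from 100 µM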
# Ecoli growth: E. coli growth inhibition, primary screen, OD600; actives 0.21% (n = 330,000); AID 1053175, 2014; OD600 absorbance (concentration not given with the values); Escherichia coli growth, 23 h; stronger effect = lower value;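 active = OD600 absorbance below the run mean of sample wells minus 3.6 SD, in any replicate, cut at about 0.56 in these data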;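 also: stock transfer was 300 nL into about 60 µL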
# UCH37 inh: inhibitors of human UCH37 deubiquitinase, primary screen, biochemical, Ub-AMC cleavage, fluorescence; Ubiquitin carboxyl-terminal hydrolase isozyme L5 (Homo sapiens), Q9Y5K5; purified proteasome/UCH37; inhibition, % (test concentration not listed); actives 0.33% (n = 330,000); AID 588478, 2011;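 active = mean of two replicates above 20%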;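 also: 0% = compound-free wells with enzyme and 100% = wells lacking proteasome; stock transfer was 100 nL into about 20 µL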
#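 Schedule: 30 min plus 25 min, room temperature / Material: human UCH37 within purified proteasomes / Technique: AMC fluorescence intensity at 355/460 nm / Buffer or medium: pH 7.4 Tris-HCl (50 mM) with ovalbumin, ATP-MgCl2, DTT / Controls: wells without proteasome as full block, compound-free enzyme plus substrate as uninhibited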
# * marks the source's active call; other numbers are inactive results; i = inactive; ? = inconclusive; · = no result given; & = joins results of further samples.
SMILES,MLL AF4-AF9 inh,HNF4A DNA FP,RanGTP-Imp inh,FGF22 binding,Vif TR-FRET,Ecoli growth,UCH37 inh
CCN=C1SC(C(=O)Nc2cccc(Br)c2)CC(=O)N1CC (stereo unspecified),-2.4,1.6,0.8,i,·,0.66,1.7
Cc1ccccc1CS(=O)(=O)CCC(=O)NCCN1CCN(c2cccc(Cl)c2)CC1,·,-2.1,-1.6,·,78%,0.67,-0.1
COc1ccc(CCCC(=O)NCCc2ccccc2)c(C)c1,-1.8,3.7,-2.4,i,·,0.69,1.2
CC1=NNC(=O)C1CCC(=O)N/N=C/c1ccc(Cl)cc1 (stereo unspecified),-3.6,8.3,-1.2,i,8%,·,·
CC(C)c1nc2oc3c(NCc4ccccn4)ncnc3c2c2c1COC(C)(C)C2,2.7,-2.0,-3.7,i,·,0.67,-13
CC(=O)Nc1cccc(C(=O)Nc2ccccc2C(=O)O)c1,·,0.5,?,·,1%,0.74,4.7
CN(C)C(CNC(=O)c1cccc(S(=O)(=O)N2CC3(C)CC2CC(C)(C)C3)c1)c1ccco1 (stereo unspecified),·,3.0,1.1,·,9%&0%,0.65,2.9
COc1ccc(OC)c(CCNC(=O)Cn2nc(C)c3c(C)n(-c4ccccc4)nc3c2=O)c1,-0.9,-0.4,2.9,i,·,0.63,2.3
COc1ccnc2c1c(=O)n(Cc1ccc(Cl)cc1Cl)c(=O)n2C,-5.1,5.7,-0.2,i,·,0.67,3.9
CCc1nc2ccccc2c(NC(=O)CN2CC(C)CC(C)C2)c1C (stereo unspecified),-1.3,5.0,-1.0,i,-6%,0.73,1.6
CCc1cc2c(=O)c(-c3nc4ccccc4n3C)coc2c(CN2CCCCC2)c1O,3.0,-2.4,2.6,i,-1%,0.67,-64
CC1(C)Cc2c(cnn2-c2ccc(F)cc2)C(NC(=O)CCC(F)(F)F)C1 (stereo unspecified),-1.2,-6.3,?,i,·,0.66,0.0
CCc1ccc(NC(=O)CCS(=O)(=O)c2cccc3nsnc23)cc1,·,-0.8,0.9,·,16%,0.68,3.7
Cc1ccc(OCC(=O)N2CCCc3ccccc32)cc1,·,0.3,-0.4,·,-6%,0.72,-1.4
O=C(COC(=O)CCSc1ccccc1)Nc1ccccc1,1.2,-0.5,·,·,·,0.68,3.2

# Structures listed so far that contain four or more nitrogen atoms (three):
SMILES,MLL AF4-AF9 inh,HNF4A DNA FP,RanGTP-Imp inh,FGF22 binding,Vif TR-FRET,Ecoli growth,UCH37 inh
CC1=NNC(=O)C1CCC(=O)N/N=C/c1ccc(Cl)cc1 (stereo unspecified),-3.6,8.3,-1.2,i,8%,·,·
CC(C)c1nc2oc3c(NCc4ccccn4)ncnc3c2c2c1COC(C)(C)C2,2.7,-2.0,-3.7,i,·,0.67,-13
COc1ccc(OC)c(CCNC(=O)Cn2nc(C)c3c(C)n(-c4ccccc4)nc3c2=O)c1,-0.9,-0.4,2.9,i,·,0.63,2.3

# Other compounds follow:
SMILES,MLL AF4-AF9 inh,HNF4A DNA FP,RanGTP-Imp inh,FGF22 binding,Vif TR-FRET,Ecoli growth,UCH37 inh
CC(OC(=O)CN1C(=O)NC2(CCCC2)C1=O)C(=O)c1ccccc1 (stereo unspecified),-8.9,-4.4,4.7,i,-5%,0.69,3.5
CCCOc1ccc(C2=CC(=O)C[C@H](c3ccc(OC)cc3)C2)cc1,-10,9.3,·,i,·,·,36*
COc1ccc(CNC(=O)CN2C(=O)COc3ccc(S(=O)(=O)N4CCCC4)cc32)cc1,1.7,1.0,1.7,i,-8%,0.71,4.2
Cc1cc2oc(=O)cc(CN(C)Cc3ccccc3)c2cc1C(C)C,0.5,-2.0,0.2,i,·,0.7,3.1
CC(Oc1ccc2c(-c3ccccc3)cc(=O)oc2c1)C(=O)NCc1ccccn1 (stereo unspecified),-1.1,2.7,5.8,i,·,0.75,3.4
CCC(Sc1nc(N)c(NC(=O)c2ccc(OC)c(OC)c2)c(=O)[nH]1)C(=O)OC (stereo unspecified),3.3,7.0,1.8,i,74%,0.75,2.6
C=CCN1C(=O)C(CC(=O)O)SC1=Nc1c(C)n(C)n(-c2ccccc2)c1=O (stereo unspecified),·,-3.1,5.6,·,29%,0.72,2.8
O=C(COc1ccccc1/C=C1\SC(=O)NC1=O)Nc1ccccc1,-1.9,-1.8,2.6,·,·,·,-0.3
O=C(O)Cn1cnc2scc(-c3ccccc3)c2c1=O,-2.0,0.6,0.3,i,·,0.68,3.2
CCc1c(C)nc(N)nc1Cl,-3.4,-2.7,-1.1,i,?,0.66,5.1
O=C(O)CCc1[nH]c2ccccc2c1Sc1ccccc1,-1.8,-1.2,-4.0,i,0%,0.67,4.6
O=CNCCCc1nc2ccccc2n1CCc1ccccc1,-0.6,1.4,2.8,i,-5%,0.62,1.1
COc1ccc(OC)c(C(c2nnnn2C2CCCC2)N2CCN(c3ccccc3)CC2)c1 (stereo unspecified),·,-6.1,·,·,11%,0.8,-4.1
Cc1c(Cl)cccc1N(CC(=O)N1CCCCCC1)S(C)(=O)=O,3.2,-1.1,-2.6,i,24%,0.71,-0.9
COc1ccc(C2c3c(-c4ccccc4)n[nH]c3C(=O)N2c2ccc(C(=O)O)cc2)cc1 (stereo unspecified),-0.1,3.2,1.3,i,·,0.7,1.1
COC(=O)c1ccc(CSc2ccc3nnc(-c4ccc(OC)c(OC)c4)n3n2)o1,1.7,2.9,7.4,i,·,0.68,-1.1
O=[N+]([O-])c1cc(S(=O)(=O)N2CCCC2)ccc1OCCOc1ccccc1,0.5,2.2,·,i,-7%,0.72,2.9
Cc1ccc(S(=O)(=O)N2CCC(NC(=O)C3CCCCC3)CC2)cc1,-0.7,-1.0,0.4,i,-4%,0.68,1.9
Cc1ncc(CO)c2cc(-c3nnc(Nc4ccc5c(c4)OCO5)s3)c(=O)oc12,0.4,1.8,3.0,i,-3%,0.69,2.2
CCOC(=O)C(CO)NC(=O)C1(NC(C)=O)CCCC1 (stereo unspecified),0.2,-4.3,·,i,-2%,0.69,1.0
N#Cc1ccc2c(c1)nnn2-c1ccccc1,-5.6,-0.6,-2.7,i,·,0.66,0.8
S=C(NCCc1ccccn1)Nc1ccccc1,-1.1,0.0,4.0,i,·,0.7,2.0
O=C(NCCCNC(=O)c1cnccn1)c1ccc(Cl)c(Cl)c1,0.3,3.9,?,i,·,0.7,4.5
Nc1ncnc2c1ncn2[C@@H]1O[C@H](C(=O)N2CCC(F)(F)CC2)[C@@H](O)[C@H]1O,0.6,-1.0,·,i,·,·,·
CCCCN(CC)C(=O)c1cc2c(=O)n3cccc(C)c3nc2s1,-3.9,4.6,-1.6,i,-12%,0.67,-233
COc1ccc(NC(=O)CN(C)S(=O)(=O)c2cccc3nsnc23)cc1,0.0,-2.2,5.9,i,-5%,0.71,3.4
CN(C)CCNc1ncnc2c1ncn2[C@H]1CN(Cc2ccccc2)C[C@@H](CO)O1,0.2,-1.7,·,i,·,·,·
CN(C)CCN(C(=O)c1ccc2ccccc2c1)c1nc2cc3c(cc2s1)OCCO3,50*,4.7,-3.7,i,·,0.68,3.7
N#CC(C#N)=C1C=CC=CN1/C(=C\c1ccccc1Cl)C(=O)c1ccccc1,·,-11,·,·,4%,0.7,-31
C/C(=N\N)c1c(-c2ccccc2)c2cc(Br)ccc2[nH]c1=O,·,2.7,21*,·,5%,·,·
C[C@]12C(=O)N(c3ccc(C(F)(F)F)cc3)C(=O)N1[C@H]1c3ccccc3OC[C@@H]1[C@H]2c1ccccc1,-0.7,0.2,·,i,·,0.79,4.1
O=C(N/N=C1\CCCc2ccccc21)c1ccccc1Cl,1.6,-11,?,i,-3%,·,·
Nc1c(C(=O)c2ccc(Cl)cc2)oc2ccccc12,·,1.4,-6.9,·,10%,0.68,-2.2
Cc1cc2nc(-c3ccc(=O)[nH]c3)n(Cc3ccccc3)c2cc1C,11,2.0,0.8,i,5%,·,·
CC1Cc2ccccc2N1CC(=O)NC(=O)NCc1ccco1 (stereo unspecified),·,3.2,5.6,·,?,0.69,4.6
COC(=O)c1ccc(COc2ccccc2/C=N/NS(=O)(=O)c2ccccc2)cc1,2.1,-0.7,2.9,i,-1%,·,·
CC(C)(C)Nc1nc(-c2ccccn2)nc2ccccc12,1.6,3.8,-0.5,i,·,·,·
CCCCC1CC(/C(C)=N/NC(N)=O)OC1=O (stereo unspecified),·,0.9,6.5,·,1%,·,·
COc1ccc(NC(=O)N2CCc3ccccc3C2)cc1OC,1.4,-2.1,4.6,i,-4%,0.72,2.4
COc1ccc(COC(=O)C2=C(C)NC(=O)NC2c2cc(OC)ccc2OC)cc1 (stereo unspecified),-0.9,4.4,-5.7,i,·,0.67,-3.2
O=C(NC1=NCCS1)c1ccc(Cl)c(Cl)c1,-1.0,-3.6,0.2,i,·,0.64,-0.8
O=[N+]([O-])c1ccc(COc2cccc(CNc3ccc(Br)cc3)c2)cc1,·,1.0,0.8,·,2%,0.72,6.7
O=C(/C=C/c1ccccc1)N/C(=C/c1ccccc1)C(=O)Nc1ccc(C(=O)O)cc1,0.2,-1.2,?,i,5%,0.63,6.2
COC(=O)Cc1c(C)c2ccc(OC(C)C)cc2oc1=O,-15,-1.6,3.1,i,0%,0.7,-324
O=C(Cc1ccc(Br)cc1)NCCc1ccccc1,-3.7,1.0,5.4,i,·,0.67,1.8
Cc1c(CC(=O)NCC(=O)O)c(=O)oc2cc3oc4c(c3cc12)CCCC4,-7.5,1.7,0.5,i,-6%,0.69,-44
CCOC(=O)c1ccccc1NC(=O)CSC(C)C(=O)Nc1cc(C)on1 (stereo unspecified),-2.2,2.9,-0.6,i,-11%,0.71,-0.5
COc1ccccc1C(=O)NC(CCSC)C(=O)NCc1ccccn1 (stereo unspecified),-1.2,-0.6,1.7,i,-6%,0.71,-2.7
COCC1CCN(C(=O)c2ccc(OC3CCN(Cc4ccccn4)CC3)cc2)C1 (stereo unspecified),-1.1,5.2,1.1,i,-1%,0.68,-2.2
COc1ccccc1OCCOCCn1cnc2ccccc2c1=O,·,1.0,1.2,·,24%,0.7,0.7
CC1CCc2sc(C(=O)NNC(=S)NCC3CCCO3)cc2C1 (stereo unspecified),2.5,0.0,-0.5,i,·,0.66,0.3
CSc1ccccc1OCc1cc(C(=O)NC(C)Cc2cccc(C)n2)no1 (stereo unspecified),-0.7,2.1,-2.7,i,-5%,0.7,-1.0
O=C(COC(=O)c1ccc(Cl)nc1)NC(=O)c1ccccc1,1.3,-1.2,?,i,-2%,0.62,-0.7
CNC(=O)CCn1nc(-c2ccc(C)cc2)c2ccccc2c1=O,·,4.8,-0.7,·,-10%,0.68,5.8
OC(c1ccccn1)C(O)c1ccccn1 (stereo unspecified),-0.1,3.8,·,i,1%,0.64,1.0
O=C(c1ccccc1)N1CCN(C(=O)N2CCOCC2)CC1,·,1.3,-1.9,·,-6%,0.68,0.3
O=C1C(=O)N(CCCN2CCOCC2)C(c2ccc([N+](=O)[O-])cc2)/C1=C(/O)c1ccc2c(c1)OCO2 (stereo unspecified),-0.8,-3.5,2.6,i,·,0.7,14

# This is a subset (hit frequency here may not be typical).
